Calb FLC: affects C. albicans growth with fluconazole; C. albicans CaCi-2 (fluconazole-resistant clinical isolate) + fluconazole, Alamar Blue growth, 48 h; growth inhibition, % (concentration not given with the values); 300,000 compounds, 0.57% hits;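 active = most replicates above 75%; inconclusive = exactly half above 75%; inactive = most below 75%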;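 note: all wells also contain fluconazole at 8 µg/ml as a sub-toxic cotreatment; 0% = median of DMSO wells and 100% = median of geldanamycin control wells; wells of about 8 µL received 7.5 nL stock; the first replicate is given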
T cruzi inh: T. cruzi replication inhibition; T. cruzi beta-gal in NIH3T3, luminescence, 90 h; inhibition, % (test concentration not listed); 300,000 compounds, 1.4% hits;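 active = mean inhibition across valid replicates above about 55%, limit read from the data; inconclusive = mean below that limit but half or more replicates reach it; inactive = mean below it, under half of replicates reach it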;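 note: signal also drops with host cell toxicity which is not excluded here; 0% = plate median of DMSO wells and 100% = zero luminescence signal; higher percent means less beta-gal luminescence so fewer parasites; stock transfer was 50 nL into about 50 µL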
LANA-H2B inh: blocks KSHV LANA binding to histone H2A/H2B; Q9QR71; cell-free LANA-H2A/H2B peptide, fluorescence polarization; inhibition, % (concentration not given with the values); 320,000 compounds, 0.6% hits; in the data active = inhibition mostly above about 10%, no sharp cut-off; inactive = mostly below about 6.7%;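 note: stock transfer was 7.5 nL into about 10 µL; 0% = median of vehicle wells and 100% = median of positive control wells; one replicate is shown; the record names a cut of 25% in any replicate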
RanGTP-Impb inh: inhibitors of RanGTP-importin-beta interaction, primary screen, biochemical, FRET, CFP-Ran, YFP-importin-beta, homogeneous; cell-free CFP-Ran/YFP-importin-beta FRET ratio; inhibition, % (concentration not given with the values); 300,000 compounds, 1.1% hits; AID 2216;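 active = most replicates above 15%; inconclusive = exactly half above 15%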;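 note: 0% = DMSO wells and 100% = Ran loaded with GDP instead of GTP; wells of about 40 µL received 100 nL stock; the first replicate is given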
AF4-AF9 inh: inhibitors of human MLL-AF4/AF9 interaction. AlphaScreen, biotin-AF4 peptide binding to FLAG-AF9. inhibition, % at 10 µM. P42568. 350,000 compounds, 0.47% hits;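 active = every replicate reaching a set inhibition limit, whatever the replicate mean, cut at about 25% in these data; inconclusive = mean inhibition reaches that limit but some replicates miss it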;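 note: 0% = plate neutral control median and 100% = total signal loss; the record names both 10 and 1 µM as test concentration; the first replicate is given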
Target sequence (P42568 whole entry, looked up): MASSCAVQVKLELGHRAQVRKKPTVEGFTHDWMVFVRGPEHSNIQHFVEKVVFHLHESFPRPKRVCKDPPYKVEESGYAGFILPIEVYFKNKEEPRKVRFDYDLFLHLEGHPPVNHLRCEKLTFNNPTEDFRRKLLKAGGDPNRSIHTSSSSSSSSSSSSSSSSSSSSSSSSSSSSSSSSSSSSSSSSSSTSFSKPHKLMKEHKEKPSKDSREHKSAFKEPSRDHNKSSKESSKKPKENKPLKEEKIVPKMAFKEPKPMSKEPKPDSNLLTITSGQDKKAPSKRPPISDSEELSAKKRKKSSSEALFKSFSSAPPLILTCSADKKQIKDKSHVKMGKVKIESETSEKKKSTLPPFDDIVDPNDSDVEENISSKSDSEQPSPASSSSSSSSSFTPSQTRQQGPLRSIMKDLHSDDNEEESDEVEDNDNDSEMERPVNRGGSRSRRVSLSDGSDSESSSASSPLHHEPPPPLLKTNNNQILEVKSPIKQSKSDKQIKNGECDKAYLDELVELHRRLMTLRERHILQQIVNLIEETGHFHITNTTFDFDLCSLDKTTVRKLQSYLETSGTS
Beta apoptosis: blocks beta cell apoptosis; protection from apoptosis, % (no concentration beside the values); INS-1E cytokine-induced death, ATP luminescence, 48 h; percent of positive-control rescue, neutral wells zero; 300,000 compounds, 0.8% hits;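 active = all replicates at 75% or more, or half of them and the mean; inconclusive = half reach 75% but not the mean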;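 note: 0% = cytokine-treated negative control wells and 100% = positive control rescue; higher means more ATP so stronger rescue from cytokine killing; wells of about 40 µL received 100 nL stock; the first replicate is given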
Bfl-1 A1 inh: inhibitors of the anti-apoptotic protein A1, read as caspase activation | MEF A1-2A-BIM cells, Caspase-Glo 3/7 luminescence, 3 h; percent of clofoctol response, vehicle zero | caspase activation, % (concentration not given with the values) | 330,000 compounds, 0.066% hits;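 active = over half of replicate activation scores above 10%, or exactly half above 10 with the replicate mean above 10; inconclusive = replicate mean below 10 yet half the replicates above 10; inactive = over half of replicates below 10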;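 note: wells of about 30 µL received 50 nL stock; many hits fall short of the cut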
Vif A3G: HIV-1 Vif–A3G interaction blockers – biochemical, TR-FRET, GST-Vif 1-94, biotin-A3G peptide, dose response retest, primary screen (AID 1117319) | 260,000 compounds, 0.57% hits | TR-FRET GST-Vif / biotin-A3G peptide binding; higher % means a stronger effect; test concentration not given here; strong numbers were not always called active | one-dose inhibition, %; IC50 in µM for titrated hits;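 active = above the screen mean plus three standard deviations and confirmed in dose response; inconclusive = results disagree or hit not tested in dose response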;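 note: Vif residues 1-94 fused to GST binding biotinylated APOBEC3G peptide 110-148; 0% = full assay without inhibitor and 100% = GST in place of GST-Vif; retest series ran down from 100 µM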
Active calls of the source: *; i = inactive; ? = inconclusive; / = no result given; & = joins results of further samples. Hits appear at their usual frequency; overall some 4.3% were active at least once.

SMILES | Calb FLC | T cruzi inh | LANA-H2B inh | RanGTP-Impb inh | AF4-AF9 inh | Beta apoptosis | Bfl-1 A1 inh | Vif A3G
Cc1ccc(-c2cnn(-c3cccc(C(F)(F)F)c3)c2N)cc1 | -32 | 8 | 3.6 | -0.7 | / | 2 | -0.7 | 14%
Cc1nnc(NC(=O)c2ccc(S(=O)(=O)N3CC(C)CC(C)C3)cc2)o1 (stereo not drawn) | 0 | -5 | 2.1 | 4.7 | -0.9 | -3 | 0.3 | /
Cc1cc(C)n2nc(C(=O)OCC(=O)NNC(=O)c3ccc(Cl)cc3)nc2n1 | -13 | -6 | 0.6 | 0.3 | -1.2 | / | 1.8 | -8%
C/C(Cc1ccccc1)=N\NC(=O)CNC(=O)c1ccccc1O | -1 | -9 | 3.8 | -4.9 | 0.8 | -9 | -0.1 | 7%
Cc1ccc(NC(=O)CSCC(=O)N2CCOCC2)cc1 | 0 | 5 | -9.9 | -0.8 | / | -4 | -0.4 | -1%
Cc1cc(=O)nc2c3ccccc3n(CC(=O)NC(C)c3ccc4c(c3)OCCO4)n12 (stereo not drawn) | -14 | -22 | 2.4 | 1.4 | 0.2 | -2 | 0.4 | -8%
CCC(C)Nc1c2c(nc3c(-c4ccccc4)c(C)nn13)CCC2 (stereo not drawn) | 5 | 26 | 0.5 | 4.6 | 0.9 | 32 | -0.2 | 2%
Cc1ccc(CNC(=O)c2ccc(N3CCC4(CC3)CC(c3cccc(Br)c3)=NO4)c(NC(=O)c3ccco3)c2)cc1 | 8 | 34 | -1.3 | 3.4 | 7.6 | 9 | 0.6 | /
COc1ccc(/C=N/NC(=O)c2cccc(NC(=O)c3ccc(F)cc3)c2)c(C(=O)O)c1OC | ? | -3 | -1.8 | -1.3 | 1.6 | -1 | 1.5 | ?
Cn1cccc1C(NC(=O)c1ccccc1)C(Cl)(Cl)Cl (stereo not drawn) | -13 | -15 | -5.5 | -0.5 | 6.8 | -1 | 0.4 | -5%
CCCN(CCC)CCNC(=O)C1c2ccccc2C(=O)N(CCOC)C1c1ccc(F)cc1 (stereo not drawn) | -12 | -34 | -2.3 | 1.7 | / | 7 | -0.2 | -9%
COc1ccc(OCC(O)Cn2c(=N)n(CCN3CCOCC3)c3ccccc32)cc1 (stereo not drawn) | 6 | 9 | 1.7 | -2.4 | / | 1 | 0.0 | -1%
COc1ccc(CN2C(=O)c3cccnc3C2O)cc1 (stereo not drawn) | -8 | -23 | 2.8 | -3.1 | / | -5 | 0.5 | 19%
O=C(COc1ccc(S(=O)(=O)N2CCCC2)cc1)N1CCN(c2ccccc2F)CC1 | 3 | 10 | 1.7 | 2.0 | 1.0 | -2 | -0.3 | -9%
CCOc1ccc(N(CC(=O)NCc2cccc(OC)c2)S(=O)(=O)c2c(C)noc2C)cc1 | 21 | 5 | -5.8 | 0.3 | / | -1 | 0.9 | 2%&-2%
CCOc1ccc2[nH]cc(S(=O)(=O)c3ccc(Cl)cc3)c(=O)c2c1 | 5 | -2 | 14 | 2.3 | 0.1 | 2 | 0.1 | -4%
COC(=O)c1sccc1NC(=O)C1C2C=CC(O2)C1C(=O)O (stereo not drawn) | -11 | -2 | 0.8 | 0.8 | / | -3 | 0.9 | 6%
CSc1nc2ccccc2n1Cc1c(Cl)cccc1Cl | 1 | 6 | -2.3 | -1.6 | / | -5 | -0.2 | -3%
C#CCNc1nc(C)nc2c1nnn2Cc1ccccc1F | 2 | -1 | 4.5 | 2.5 | / | 9 | 1.2 | -8%
CC1CCC2(CC1)NC(=O)N(CC(=O)NCc1ccc(F)cc1)C2=O (stereo not drawn) | / | / | -1.7 | / | 7.5 | -3 | 0.6 | -10%
COc1ccc(NC(=O)CCNS(=O)(=O)c2cccc3nonc23)cc1 | 9 | 13 | 0.6 | -5.0 | -0.9 | 3 | -0.1 | /
CN1CCN(C(=O)C2CCC(CNS(=O)(=O)c3cccc4cccnc34)CC2)CC1 (stereo not drawn) | 18 | 0 | -2.8 | 1.0 | 1.3 | -13 | -0.2 | 1%
Cc1cccc(C(=O)O/N=C(\N)CS(=O)(=O)c2ccccc2)c1 | -16 | 6 | 3.1 | -3.8 | -18 | 2 | 2.0 | -3%
CS(=O)(=O)N1CCN=C1SCc1ccc(F)cc1 | -15 | -7 | 0.7 | -2.3 | -0.6 | -3 | -0.1 | /
CCCC(NC(=O)CCc1c(C)c2cc3c(-c4ccccc4)coc3cc2oc1=O)C(=O)O (stereo not drawn) | 7 | 1 | -3.0 | -0.3 | 0.2 | 1 | -0.8 | -4%

Additional results follow:
SMILES | Calb FLC | T cruzi inh | LANA-H2B inh | RanGTP-Impb inh | AF4-AF9 inh | Beta apoptosis | Bfl-1 A1 inh | Vif A3G
CC(C)NC(=O)C1CCN(C(=O)C(C(=O)c2ccccc2)n2cc(Cl)ccc2=O)CC1 (stereo not drawn) | ? | -21 | 0.6 | 7.2 | / | -4 | 0.1 | 2%
Cc1ccc(C)c(CSc2nnc(C)c(=O)[nH]2)c1 | 17 | -12 | -5.4 | -0.2 | -2.8 | 3 | 0.4 | -5%
COc1ccc(CN(C)C(=O)c2[nH]c(C)c(C(C)=O)c2C)c(OC)c1OC | 2 | -3 | -5.0 | -1.1 | 2.1 | -5 | 0.1 | /
CCOC(=O)c1sc(NC(=O)CN(CC)CC)c(C(=O)OCC)c1C | 1 | 38 | -1.0 | 0.1 | / | 11 | 0.3 | -1%
Cc1c(NC(=O)CSC(=S)N2CCCC2)c(=O)n(-c2ccccc2)n1C | 11 | 1 | / | ? | 1.1 | -3 | 0.3 | 1%
CC1CCCCN1C(=O)c1cc2c(=O)n3ccccc3nc2s1 (stereo not drawn) | 0 | 1 | -2.4 | 1.4 | -0.6 | 3 | 0.5 | /
CCCN(CCC)S(=O)(=O)c1ccc(Cl)c([N+](=O)[O-])c1 | -19 | -9 | -7.5 | 6.1 | 6.5 | -4 | -0.3 | /
CC[C@@]1(C(=O)OC)N[C@H](CN(C)C(=O)c2ccc(F)cc2)[C@@H]2C(=O)N(Cc3ccccc3)C(=O)[C@@H]21 | / | / | i | / | 0.5 | 3 | -0.4 | /
Cc1ccc(S(=O)(=O)/C(C#N)=C/c2c(N3CCN(C)CC3)nc3ccccn3c2=O)cc1 | -5 | 3 | -0.6 | 65* | / | -4 | 0.0 | ?
O/N=C1/CCCCc2sccc21 | -5 | -11 | 7.5 | 1.5 | / | -2 | 1.0 | 3%
Cc1cc(C)n(CCNS(=O)(=O)c2ccc(C)c(C)c2)n1 | 1 | 0 | 4.0 | -0.4 | -1.1 | 0 | 1.3 | /
Cc1cccn2c(=O)c3cc(C#N)c(=N)n(CCN4CCOCC4)c3nc12 | 6 | -15 | / | 87* | / | / | / | 11%
Cc1ccc(C(=O)NN=C2CCCCCC2)s1 | -1 | -8 | 4.6 | -2.5 | 0.8 | -4 | 0.4 | /
CCOC(=O)C1=NN(C(C)=O)C2C(=O)N(CC)C(=O)C12 (stereo not drawn) | 0 | -6 | 5.4 | 3.2 | / | -1 | 0.7 | -4%
COc1ccc(N2CCN(c3nc(NCCO)nc(N4CCOCC4)n3)CC2)cc1 | -7 | 0 | 1.7 | -0.6 | / | / | -0.5 | 3%
COc1ccc2cc(C(=O)N3CCN(C)CC3)[nH]c2c1 | 4 | 3 | 4.0 | -1.7 | -4.2 | -3 | -0.4 | -5%
O=C(NCCN1CCN(Cc2ccccc2Cl)CC1)Nc1ccccc1 | -6 | 40 | 8.1 | -1.0 | 9.6 | -2 | ? | 4%
Cc1nc2ccccc2c(=O)n1CC(=O)N1CCOCC1 | 4 | 2 | 3.2 | -1.4 | / | -6 | 0.2 | 10%
COc1ccc(-n2nnc3c(SCC(=O)NCc4ccco4)ncnc32)cc1 | -11 | 9 | 3.4 | -1.1 | / | 2 | -3.4 | -5%
CCOc1ccc(Nc2nc(Cc3nnc(SCC(=O)N(CC)CC)n3C)cs2)cc1 | -7 | -4 | 7.0 | 0.8 | / | 3 | -0.1 | 8%
C/C(=N\NC(=O)c1ccc(O)cc1)c1cccc(NC(=O)c2ccc(Cl)cc2)c1 | -3 | 5 | -2.3 | -0.7 | -4.7 | -3 | -1.3 | /
O=C(N/N=C/c1sc(=O)[nH]c1-[n+]1ccccc1)c1ccccc1[O-] | -15 | 2 | 1.8 | -4.1 | -1.3 | -2 | 0.3 | /
C=CCc1cc(/C=N\NC(=O)CSc2nnc(CCCc3ccc(OC)c(C)c3)o2)cc(OC)c1O | 0 | -6 | 0.5 | 7.1 | / | -2 | -0.3 | 70%
Cn1cc(Cl)c(-c2n[nH]c(=S)n2-c2ccc(F)cc2)n1 | -7 | 3 | 0.5 | -2.1 | 2.1 | 0 | 0.2 | -36%
Cc1ccc(C)c(S(=O)(=O)Nc2ccc(S(=O)(=O)Nc3ncccn3)cc2)c1 | / | / | -0.3 | / | -0.8 | 1 | -0.1 | -2%

Shown as a hit in RanGTP-Impb inh, among the entries above:
compound	LANA-H2B inh	RanGTP-Impb inh	AF4-AF9 inh	Vif A3G
Cc1ccc(S(=O)(=O)/C(C#N)=C/c2c(N3CCN(C)CC3)nc3ccccn3c2=O)cc1	-0.6	65*	/	?
Cc1cccn2c(=O)c3cc(C#N)c(=N)n(CCN4CCOCC4)c3nc12	/	87*	/	11%

Other compounds follow.
SMILES | Calb FLC | T cruzi inh | LANA-H2B inh | RanGTP-Impb inh | AF4-AF9 inh | Beta apoptosis | Bfl-1 A1 inh | Vif A3G
FC(F)(F)c1cnc(Sc2nnc(-c3cccs3)n2CC2CCCO2)c(Cl)c1 (stereo not drawn) | 16 | 12 | 7.0 | 0.7 | / | 1 | 0.1 | -3%
c1ccc2c(c1)[nH]c1ccccc12 | 0 | -8 | 3.7 | -2.6 | 0.2 | -9 | 0.8 | /
COc1cc(OC)cc(C(=O)NCC(=O)OCC(=O)c2ccc3c(c2)-c2ccccc2C3)c1 | 3 | -2 | -3.5 | -0.1 | -1.2 | -1 | -0.6 | -27%
CCOc1ccc(N(CC(=O)NCC2CCCO2)S(=O)(=O)c2ccc(OC)c(OC)c2)cc1 (stereo not drawn) | -4 | -8 | -2.1 | 1.0 | / | -4 | 0.1 | 11%
O=C(CCl)N(c1ccc(Cl)cc1)c1c[nH]c2ccccc12 | 113* | 58* | 0.7 | -1.6 | / | -5 | 1.0 | 4%
CCOC(=O)Cc1csc(NC(=O)NC2(C(F)(F)F)Oc3ccc(Cl)cc3O2)n1 (stereo not drawn) | -2 | -8 | 4.1 | 3.1 | / | 0 | -0.4 | 8%

Among those listed so far, these contain a COOH group:
SMILES | Calb FLC | T cruzi inh | LANA-H2B inh | RanGTP-Impb inh | AF4-AF9 inh | Beta apoptosis | Bfl-1 A1 inh | Vif A3G
COc1ccc(/C=N/NC(=O)c2cccc(NC(=O)c3ccc(F)cc3)c2)c(C(=O)O)c1OC | ? | -3 | -1.8 | -1.3 | 1.6 | -1 | 1.5 | ?
COC(=O)c1sccc1NC(=O)C1C2C=CC(O2)C1C(=O)O (stereo not drawn) | -11 | -2 | 0.8 | 0.8 | / | -3 | 0.9 | 6%
CCCC(NC(=O)CCc1c(C)c2cc3c(-c4ccccc4)coc3cc2oc1=O)C(=O)O (stereo not drawn) | 7 | 1 | -3.0 | -0.3 | 0.2 | 1 | -0.8 | -4%

Screening results (PubChem BioAssay)
